# NPR1 antag: antagonists of human natriuretic peptide receptor Npr1 | P16066 | HEK293 hNpr1 GloSensor cGMP, ANP-stimulated luminescence | Potency, µM (titrated, usually from 46.3 µM), for the others: at the highest dose activity change, negative = inhibition, hits mostly inhibitors | hit rate 1.6% among 76,000 | AID 1347048; active = well fitted inhibition curve with a large enough effect; inconclusive = small, poorly fitted or top-dose-only effect; inactive = no such curve, though single readings can be large or run the other way;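 also: nearly all actives have a fitted effect of over 60% in size; nearly all hits also lower the signal before the agonist is added; a reference antagonist and vehicle were the controls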
# Target sequence (P16066 whole entry, looked up): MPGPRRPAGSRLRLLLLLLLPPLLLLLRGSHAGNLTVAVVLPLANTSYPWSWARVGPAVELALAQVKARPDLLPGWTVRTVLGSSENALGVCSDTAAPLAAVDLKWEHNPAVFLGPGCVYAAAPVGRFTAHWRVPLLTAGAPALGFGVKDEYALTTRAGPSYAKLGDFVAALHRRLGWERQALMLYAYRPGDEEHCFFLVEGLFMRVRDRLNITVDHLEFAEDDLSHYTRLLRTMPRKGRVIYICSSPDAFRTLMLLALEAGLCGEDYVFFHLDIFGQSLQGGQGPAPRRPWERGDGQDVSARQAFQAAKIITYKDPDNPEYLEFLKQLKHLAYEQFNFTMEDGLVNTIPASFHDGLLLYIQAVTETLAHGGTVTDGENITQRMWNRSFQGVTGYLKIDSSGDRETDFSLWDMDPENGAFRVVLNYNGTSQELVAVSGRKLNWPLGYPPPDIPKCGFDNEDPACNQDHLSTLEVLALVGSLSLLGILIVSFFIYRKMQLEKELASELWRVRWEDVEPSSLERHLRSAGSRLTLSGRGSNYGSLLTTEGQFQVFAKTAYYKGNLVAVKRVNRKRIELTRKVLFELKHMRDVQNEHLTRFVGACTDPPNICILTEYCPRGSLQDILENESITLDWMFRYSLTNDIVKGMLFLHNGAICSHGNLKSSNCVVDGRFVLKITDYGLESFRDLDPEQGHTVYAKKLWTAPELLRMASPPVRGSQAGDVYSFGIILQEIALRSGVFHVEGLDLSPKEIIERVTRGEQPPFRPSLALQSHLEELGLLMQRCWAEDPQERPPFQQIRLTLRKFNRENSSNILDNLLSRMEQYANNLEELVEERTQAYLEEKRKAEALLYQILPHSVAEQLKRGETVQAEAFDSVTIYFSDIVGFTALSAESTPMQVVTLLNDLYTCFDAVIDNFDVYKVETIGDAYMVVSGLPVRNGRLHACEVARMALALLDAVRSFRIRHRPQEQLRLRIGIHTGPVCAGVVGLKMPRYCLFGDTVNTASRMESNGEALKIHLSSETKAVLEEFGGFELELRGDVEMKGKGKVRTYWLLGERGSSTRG
#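 HEK293 cells stably expressing human Npr1 and cGMP GloSensor pGS-40F, loaded 2 h with 2% GloSensor reagent, given compound 30 min at room temperature. Luminescence read before and 20 min after 0.1 nM hNppA.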
# * hit, by the source's call; ? = inconclusive; [ ] = dose if it differs, or a comment. % is scaled to controls: 0 for no effect and ±100 for the full control effect; potency is read from the fitted curve at half-maximal effect.
SMILES,NPR1 antag
CNC(=O)[C@@H]1CN(C(=O)c2ccncn2)C[C@H]1c1n[nH]c(C)n1,3.2%
Cc1noc2c(N3CC[S+](=O)([O-])CC3)cc(-c3ccc(Cl)cc3)nc12,-1.3%[70.6 µM]
CCCn1nccc1C(=O)N1CCCC(CCc2cccc(C(F)(F)F)c2)C1 (configuration not stated),?
Cc1noc([C@@H]2CC(F)(F)CN2C(=O)c2n[nH]c3ccccc23)n1,-9.2%
Cc1cccc(-n2nc(-c3c(C)nc4scc(CC(=O)NCCC(C)C)n4c3=O)cc2C)c1,-2.0%
COc1cccc(-c2cc3c(=O)n(CCNC(=O)Cc4cccs4)ccn3n2)c1,-15.4%
COc1ccc(-c2cc(C(=O)O)cc(S(=O)(=O)N3CCN(C)CC3)c2)cc1,-2.5%
O=C1CCN(S(=O)(=O)c2ccccc2)CCCN(C(=O)C2CCOCC2)CCN1,2.3%
CC1=C[C@@H](CN2CCC(C(N)=O)CC2)[C@H](C(C)C)C[C@H]1Cc1nnc(C(C)(C)C)o1,-3.6%[70.6 µM]
O=C(Cn1ccn2nc(-c3ccc(F)cc3)c(CO)c2c1=O)Nc1ccccc1Cl,-5.3%
CCc1nc(-c2c3n(c(=O)n(CC(=O)Nc4cccc(C#N)c4)c2=O)CCCC3)no1,0.5%
O=C(CC[C@H]1NC(=O)c2ccccc2NC1=O)Nc1ncn[nH]1,0.7%
CN1CCN(C(=O)c2csc(N3CCN(c4ccc(Cl)cc4)CC3)n2)CC1,-11.3%
O=C(NCc1ccccc1F)c1ccc2c(c1)CN(C1CCC1)CCO2,0.2%
Cc1cccc(OCCc2noc(C3CCCN(Cc4ccccn4)C3)n2)c1 (configuration not stated),-6.2%
Cn1nccc1CCC(=O)N[C@@H]1COCC[C@H]1Oc1ccc(CO)cc1,2.3%
CCc1nc2c(c(-c3ccc(Cl)cc3)n1)CN([S+](=O)([O-])c1c(C)noc1C)CC2,12.0%
CC(C)NC(=O)C[C@@H]1C[C@H]2O[C@H](CNC(=O)N3CCOCC3)[C@@H](O)[C@H]2O1,6.5%[70.6 µM]
CC(C)NC(=O)N(C1CC1)C1CCOC2(CCN(C(=O)Cc3ccccc3F)CC2)C1 (configuration not stated),1.7%
O=C(c1ccc(C(F)(F)F)cc1)N1CCCC2(CN[S+](=O)([O-])c3ccccc3N2)C1 (configuration not stated),-1.3%

# Quoted at random: four compounds from above
SMILES,NPR1 antag
CC(C)NC(=O)C[C@@H]1C[C@H]2O[C@H](CNC(=O)N3CCOCC3)[C@@H](O)[C@H]2O1,6.5%[70.6 µM]
O=C(NCc1ccccc1F)c1ccc2c(c1)CN(C1CCC1)CCO2,0.2%
CC(C)NC(=O)N(C1CC1)C1CCOC2(CCN(C(=O)Cc3ccccc3F)CC2)C1 (configuration not stated),1.7%
O=C1CCN(S(=O)(=O)c2ccccc2)CCCN(C(=O)C2CCOCC2)CCN1,2.3%

# Structural class: the compounds so far with an NH in an aromatic ring (three)
SMILES,NPR1 antag
CNC(=O)[C@@H]1CN(C(=O)c2ccncn2)C[C@H]1c1n[nH]c(C)n1,3.2%
Cc1noc([C@@H]2CC(F)(F)CN2C(=O)c2n[nH]c3ccccc23)n1,-9.2%
O=C(CC[C@H]1NC(=O)c2ccccc2NC1=O)Nc1ncn[nH]1,0.7%

# The list goes on.
SMILES,NPR1 antag
CC(C)c1noc(-c2cn(C3CCN(C(=O)c4ccc5[nH]ccc5c4)CC3)nn2)n1,0.0%
Cc1ccc(C2Cn3nnc(-c4nc(-c5cccnc5)no4)c3CO2)c(C)c1 (configuration not stated),-5.7%
Cc1ncccc1Oc1ncnc(N2CCCCC(N)C2)c1C (configuration not stated),5.9%
C#CCNC(=O)C1CN(c2ccc(OC)cc2)C(=O)N1 (configuration not stated),0.0%[70.6 µM]
COc1ccc(NC(=O)Cn2c(C)cc3nc4n(c(=O)c32)CCCC4)cc1Cl,-3.8%
COCC(=O)N[C@@H]1CN(Cc2cccn2C)C[C@H]1CO,-4.3%
O=C(c1cccnc1)N1CC(COc2ccccc2)C2(C1)CN(c1ccccc1)C2 (configuration not stated),1.6%[70.6 µM]
CC(=O)Nc1ccc(NC(=O)c2cc3n(n2)CC(c2ccc(Cl)cc2)OC3)cc1 (configuration not stated),-16.8%
Cc1ncc2c(n1)CCCN(CC(=O)NC1CC1)C2=O,8.2%
COc1cccc(-c2nc3c([nH]2)CN(C(C)C(=O)NC2CCCCC2)CC3)c1 (configuration not stated),-11.0%
CCNC(=O)N1CCC(Oc2ncccc2C(=O)N(C)C)C1 (configuration not stated),3.7%
O=C(NC1CCCCC1)C1CC(=O)N(c2n[nH]c3ccccc23)C1 (configuration not stated),-0.3%
C=CCC1(CO)CCCN(CC(=O)NCCc2ccc(Cl)cc2)C1 (configuration not stated),-1.8%
Cc1cccc(NC(=O)Cn2c(-c3cccc(Cl)c3)nc(C)c(CCO)c2=O)c1C,-4.3%
COc1cccc(-c2nc3cnccn3c2NCCC(=O)NC2CCCCCC2)c1,-5.0%
CCN(C(=O)CC1COc2ccc(C(=O)N3CCOCC3)cc2N1C)C(C)C (configuration not stated),2.9%
CCOC(=O)C1(Cc2cccc(Cl)c2)CCCNC1 (configuration not stated),1.1%
COC[C@@H]1CN(C(=O)c2cc3ccccc3[nH]2)C[C@H]1c1ccncc1,-17.3%
C[C@]1(CO)[C@H]2Cc3sc(NC(=O)C4CCCCC4)nc3[C@@H](CC(=O)NCc3cccs3)[C@]2(C)CC[C@H]1O,-1.7%
CN1C(=O)CCC2(CNC(=O)c3n[nH]c4ccccc34)CCC=C12 (configuration not stated),-0.4%
COc1cc(=O)n2c(c1C(=O)Nc1ccc(C(F)(F)F)cc1)CCCC2,-5.5%
Cc1cnc(C2CCOCC2)n1C1CCCN(S(=O)(=O)c2cn(C)cn2)C1 (configuration not stated),0.7%
O=C(C1CCCNC1)N1CCCn2cc(-c3ccccc3F)nc21 (configuration not stated),3.0%
COc1cccc(CNC(=O)C2CN(S(=O)(=O)c3cccnc3)CC23CCCCC3)c1 (configuration not stated),-4.8%
O=C(CC[C@@H]1CNC(=O)[C@@H]2C[C@H](NCc3ccccc3)CN12)NCc1ccc(F)cc1,-0.3%[70.6 µM]
CCCNC(=O)Cn1ccn2nc3c(c2c1=O)CCCC3,0.3%
Cc1ccc(-c2cc(C(=O)N3CCCC3c3nncn3C(C)C)[nH]n2)cc1 (configuration not stated),1.0%
O=C(O)COCC(=O)N1CC[C@H]2COC(=O)N2c2cc(F)ccc2C1,-1.1%[70.6 µM]
COc1ccc(Cl)cc1C(=O)N1CCCC(c2[nH]ccc2C(N)=O)C1 (configuration not stated),3.6%
CCCCCC(=O)Nc1nc2c(s1)C[C@@H]1[C@](C)(CO)[C@H](O)CC[C@@]1(C)[C@@H]2CC(=O)NC1CC1,3.0%
O=C(NCc1ccc2c(c1)OCO2)C1CN(c2ccc(F)cc2)C(=O)N1 (configuration not stated),12.1%
COc1ccc(-c2cc3c(cn2)CN(Cc2ccccc2)CCN3)cc1OC,-12.8%[70.6 µM]
Fc1ccc2nc(CO[C@H]3CN(Cc4cnc5ccccc5c4)C[C@H]3F)[nH]c2c1,?
Cc1ccc(CN2CCc3ncc(C(=O)NCc4ccccc4)n3CC2)o1,-0.7%[70.6 µM]
CC1(C(=O)NCc2cnccn2)CCCc2cnc(NCc3ccccc3)nc21 (configuration not stated),3.5%[70.6 µM]
O=C1CC(c2noc(Cc3ccc(F)cc3)n2)CN1c1ccc(F)c(Cl)c1 (configuration not stated),-1.2%
O=C(c1ccccc1-c1ccccc1F)N1CCCC(CO)(Cc2ccccc2F)C1 (configuration not stated),3.7%
CCOc1ccc(CCCC(=O)N2CC[C@@](C)(O)[C@@H](O)C2)cc1C,2.9%
CC(C)CNc1ccc2c(n1)C(C)(C(=O)NC1CCC(O)CC1)CN(Cc1ccccc1)C2 (configuration not stated),-11.2%
Cc1noc([C@@H]2CC(F)(F)CN2C(=O)c2ccoc2C)n1,-2.5%
C#CCNC(=O)C[C@@H]1c2nc(NC(=O)C(C)(C)C)sc2C[C@@H]2[C@](C)(CO)[C@H](O)CC[C@]21C,2.3%
OCc1cc(CC2(NCC3CC3)COC2)no1,-2.4%[70.6 µM]
O=C(NCc1ccc(Cl)cc1)c1ccc(N2CC3CC(C2)[C@H]2CCCC(=O)N2C3)nc1 (some centres not stated),-0.8%
CC(C)N1C[C@H](O)C[C@H]1c1nnc2n1CCN(C(=O)c1n[nH]c3ccccc13)CC2,0.7%
COc1ccc(Cl)cc1NC(=O)Cn1nc2c(cc1=O)CCCCC2,-0.3%
CC(=O)Nc1cccc(-c2n[nH]c3c2CC(=O)N(CCOc2ccccc2)C3)c1,-30.4%[70.6 µM]
Cc1ccccc1-c1nc(C2CC(=O)N(c3ccc(Cl)cc3)C2)no1 (configuration not stated),-2.7%
CC[C@H]1CN(S(=O)(=O)c2ccccc2)CC[C@H]1CC(=O)N(C)CCC#N,4.3%[70.6 µM]
CCc1n[nH]c(CC2CCN(C(=O)Cc3c[nH]c4ccccc34)CC2)n1,2.9%
COC1CCOC2(CCN(C(=O)c3ccco3)CC2)C1 (configuration not stated),2.3%
CC1(C)CN(C(=O)c2cccc(-c3ncc[nH]3)c2)CC1(C)O (configuration not stated),2.1%
O=C(NC1CC1)C1COC2(CCN(C(=O)c3ccc(Cl)cc3)CC2)N1C(=O)c1cccc(F)c1 (configuration not stated),2.6%
O=C(Cn1nc2c(cc1=O)CCCCC2)Nc1ccccc1Cl,-22.7%
Cn1cnnc1CC1CCN(C(=O)c2cn3ccsc3n2)CC1,6.6%
O=C1NCCOCCCN(S(=O)(=O)c2cccc3cccnc23)[C@H]2CCCC[C@@H]12,-0.7%
CCOc1ccc(-c2ccnc(N3CCNC(C)C3)n2)cc1C(=O)O (configuration not stated),-1.2%
CC(C)CNc1ccc2c(n1)C(C)(C(=O)Nc1ccn(C)n1)CN(Cc1ccccc1)C2 (configuration not stated),0.3%[70.6 µM]
COc1cccc(C2Cn3nnc(-c4nc(-c5ccc(Cl)cc5)no4)c3CO2)c1 (configuration not stated),2.4%
O=C1CCCCC(C(=O)N2CCCCC2)N1 (configuration not stated),1.5%
O=C(Nc1cccc(F)c1)N1CCC(N2CC3CC(C2)[C@H]2CCCC(=O)N2C3)CC1 (some centres not stated),-15.9%

# (listing goes on)
SMILES,NPR1 antag
COc1cccn(CC(=O)N(C)Cc2c(C)noc2C)c1=O,-0.6%
CCCc1noc(-c2cccn3c(CNC(=O)CCC4CCCC4)nnc23)n1,-0.7%
Cn1ccc2c(C(=O)NCc3cccnc3)nc(-c3cccc4cc[nH]c34)cc21,?
COc1ccccc1CC(=O)N1CCc2c(nc3cc[nH]n3c2=O)C1,-1.0%
O=C1CO[C@H]2CN(CCCc3ccccc3)C[C@H]2N1Cc1ccc(F)cc1,?
Cc1ccc(C2Cn3nnc(C(=O)N4CCC(C(=O)NC5CCN(C)CC5)CC4)c3CO2)cc1 (configuration not stated),-1.9%
Cc1n[nH]c(C)c1CCC(=O)N1CCC(C2CCN(S(C)(=O)=O)CC2)C1 (configuration not stated),9.7%
COC(=O)[C@H]1CN(C(=O)c2cccnc2)CCN1C(=O)C1CCCCC1,9.7%[70.6 µM]
CC(C)CS(=O)(=O)Nc1ccc([C@H]2OCC(=O)N[C@@H]2CO)cc1,-1.9%[70.6 µM]
COc1ccc(CNc2cc3c(cn2)CN(C)CCN3)cc1OC,2.3%[70.6 µM]
COCCNC(=O)C1(C)CCc2cnc(Nc3cccc(OC)c3)nc21 (configuration not stated),1.4%[70.6 µM]
Cc1ccc(NC(=O)C2CCCN(c3cnn(Cc4ccccc4)c(=O)c3)C2)c(C)c1 (configuration not stated),-12.6%
COCC1CN(C)CC12CCN(C(=O)NC1CCCCC1)CC2 (configuration not stated),-5.6%
Cn1ccc2ccc(C(=O)N3CCN(CCOc4ccccc4)CC3)cc21,-15.9%
COc1ccc(S(=O)(=O)N2CCCCC2c2nc(-c3cnccn3)n[nH]2)cc1 (configuration not stated),0.2%
Clc1ccc(CN2CC[C@H](c3nc4cc(Cl)ccc4o3)C2)cc1,-21.5%[70.6 µM]
O=c1c2c(n(Cc3ccccc3)n1-c1ccccc1)CN(Cc1ccc3c(c1)CCO3)CC2,?
CCn1cc(-c2cc3c(cn2)CN(Cc2ccncc2)CCN3)cn1,-1.4%[70.6 µM]
O=C(C1CCC1)N1C[C@@H]2CC[C@H](C1)N(C(=O)Nc1ccc(F)c(F)c1)C2,-1.7%
CCc1noc(-c2cn(C3CCCN(C(=O)c4cc(C)cc(C)c4)C3)nn2)n1 (configuration not stated),-1.5%

# In the list so far, two contain a thiophene ring, fused or not:
SMILES,NPR1 antag
COc1cccc(-c2cc3c(=O)n(CCNC(=O)Cc4cccs4)ccn3n2)c1,-15.4%
C[C@]1(CO)[C@H]2Cc3sc(NC(=O)C4CCCCC4)nc3[C@@H](CC(=O)NCc3cccs3)[C@]2(C)CC[C@H]1O,-1.7%

# Continued.
SMILES,NPR1 antag
CNc1nccc(N2CCC(CC(=O)NCCCN(C)C)CC2)n1,1.5%
COc1ccc(CC(=O)N2C[C@@H](C(N)=O)[C@H](c3nc(C)no3)C2)cc1Cl,-6.1%
OC1(c2ccc(F)cc2)CCN(c2nccc(-c3ccccn3)n2)CC1,-5.2%
Clc1ccc(CNc2nc(-c3ccccc3)no2)cc1,-30.4%
COc1ccc(-c2nc(C(C)C)nc3c2CN([S+](=O)([O-])c2cccc(OC)c2)CC3)cc1,8.0%
CNC(=O)[C@@H]1CN(Cc2ccc(Br)cc2F)C[C@H]1CO,-13.0%
O=c1[nH]c(N2CCOCC2)nc2c1CCN(Cc1ccc(F)cc1)CC2,-5.9%
O=C([C@@H]1C[C@H](Oc2cccnc2)CN1C(=O)c1ccncc1)N1CCCC1,1.4%
CCN1C(=O)CCN(S(=O)(=O)c2cccc3cccnc23)CC12CCOCC2,1.4%

# A portion of the library; rates above refer to the full screens.
